ClpP mod: qHTS Assay for Activators of ClpP; purified B. subtilis ClpP, FRET peptide cleavage, 20 min; Potency, µM (highest dose often 57.5 µM), for the others: at the highest dose activity change, negative = active; 340,000 compounds, 1.9% hits; AID 651965, 2013; active = well fitted falling curve with a large enough effect; inconclusive = small, poorly fitted or top-dose-only effect; inactive = no such curve, though single readings can be large or run the other way; note: potency is the fitted concentration of half-maximal effect; the source files actives as falling curves though it sought activators and does not explain the sign; nearly all actives have a fitted effect of over 65% in size; many hits overshoot -100%
Target sequence (P80244 whole entry, looked up): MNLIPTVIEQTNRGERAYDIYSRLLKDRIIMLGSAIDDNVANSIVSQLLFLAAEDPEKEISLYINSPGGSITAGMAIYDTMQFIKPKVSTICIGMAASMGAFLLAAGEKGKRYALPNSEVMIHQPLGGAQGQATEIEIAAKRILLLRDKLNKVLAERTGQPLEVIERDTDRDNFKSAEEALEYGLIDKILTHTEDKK
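FRET quenching reversal measured ClpP activation: 10 microg/mL B. subtilis ClpP at pH 8 with the FRET-FV decapeptide, read at 430 nm after 320 nm excitation. The 20-min minus 0-min signal was scaled between DMSO/no-enzyme wells and ADEP (5.8 microM final).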
PINK1 modulator: modulators of PINK1 expression. PINK1 immunofluorescence, high-content cytometry, 24 h. Potency, µM (highest dose often 76.6 µM), inactives show at the top dose activation (PINK1 increase), usual class: activators. 410,000 compounds, 0.2% hits; active = well fitted activation curve with a large enough effect; inconclusive = small, poorly fitted or top-dose-only effect; inactive = flat fitted curve, though single readings scatter; cell line not stated here;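 note: potency is the fitted concentration of half-maximal effect; % of control where 0% means no effect; nearly all actives have a fitted effect of over 65% in size; a mitochondrial uncoupler was the plate control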
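Readout is PINK1 immunofluorescence, quantified alongside mitochondrial, cell and nuclear markers by laser-scanning microplate cytometry. Cells from a stable line were exposed to compound titrations (5 concentrations) for 24 hours, with CCCP controls.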
Menin-MLL FL inh: menin-MLL binding inhibition, fluorescein peptide | Fluorescence polarization, fluorescein-MLL peptide displacement from menin | FP activity change, % at 61.4 µM | 290,000 tested, under 10 active | AID 1766; inconclusive = falling polarisation curve, or a change in total fluorescence; inactive = total fluorescence flat and polarisation flat or rising; no compound was filed as active; the % refers to the polarisation; negative = inhibition;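 note: % of control where 0% means no effect; inhibitors lower the polarisation; unlabelled MLL peptide was the positive control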
gsp agonist: gsp mutant agonism | 340,000 compounds, 0.13% hits | gsp mutant cells, cAMP HTRF, 30 min; control for the full effect not named in the record | Potency, µM (series often up to 76.9 µM), for the others: at the highest dose activation (cAMP increase), usual class: activators | AID 624287; active = well fitted activation curve with a large enough effect; inconclusive = small, poorly fitted or top-dose-only effect, or another doubt; inactive = no such curve, though single readings can be large or run the other way; cell line not stated here;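 note: phosphodiesterase inhibitor Ro 20-1724 added with compounds to block cAMP breakdown; potency is the fitted concentration of half-maximal effect; nearly all actives have a fitted effect of over 60% in size; about a fifth of the inactives were tested at one dose only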
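Cells in DMEM/10% FBS with G418 were pretreated with compounds in DMSO plus […] (300 uM stock) for 30 min at 37C. cAMP was measured by HTRF (cAMP-d2 plus anti-cAMP antibody-K) after 30 min at room temperature.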
Sfp PPTase inh: Sfp phosphopantetheinyl transferase inhibition | Q9F4F7 | Biochemical Sfp PPTase activity, qHTS | Potency, µM, for inactives: max response, negative = inhibition, actives largely listed as inhibitors | 310,000 compounds, 3.5% hits; active = well fitted inhibition curve with a large enough effect; inconclusive = small, poorly fitted or top-dose-only effect, or another doubt; inactive = no such curve, though single readings can be large or run the other way;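 note: the enzyme is Sfp with the accession as filed and its product quenches rhodamine fluorescence; potency is the fitted concentration of half-maximal effect; 0% = enzyme reaction without inhibitor and -100% = no enzyme wells; top concentration of the series not given in the record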
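Step 1, compound plus 15 nM Sfp-PPTase, 15 min, room temperature. Step 2, add rhodamine-CoA (5 uM) and BHQ-2-YbbR (12.5 uM). Step 3, read 525/598 nm fluorescence at 0 and 30 min.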
gsp antag: gsp mutant antagonism; gsp-mutant cells, cAMP HTRF, 30 min; control for the full effect not named in the record; Potency, µM (top dose mostly 76.9 µM), for inactives: at the top dose activity change, negative = inhibition, actives largely listed as inhibitors; 340,000 compounds, 0.4% hits; AID 624288; active = falling curve of any shape with a large fitted effect; inconclusive = falling curve, mostly with a smaller effect; inactive = flat or rising curve; cell line not stated here;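 note: intracellular cAMP measured with PDE inhibitor Ro 20-1724 present during compound exposure; potency is the fitted concentration of half-maximal effect; % is set by controls: 0 for no effect and ±100 for the full control effect; nearly all actives have a fitted effect of over 65% in size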
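HTRF cAMP measurement after 30 min RT detection following 30 min, 37C compound treatment alongside […] (added as 300 uM solution) in G418-selected cells seeded at 2000/well and grown 16–24 h.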
D2 agonist: human D2 receptor agonism in beta-arrestin assay; P14416; DiscoveRx PathHunter D2 beta-arrestin, luminescence, 90 min; 100% = 57 uM dopamine signal; activation, % (no concentration beside the values); 360,000 compounds, 0.084% hits; in the data active = activation above about 40%; inconclusive = about 15% to 40%; inactive = below about 15%; note: compound concentration not given in the record; the text of the record calls up to 30% inactive
Target sequence (P14416 whole entry, looked up): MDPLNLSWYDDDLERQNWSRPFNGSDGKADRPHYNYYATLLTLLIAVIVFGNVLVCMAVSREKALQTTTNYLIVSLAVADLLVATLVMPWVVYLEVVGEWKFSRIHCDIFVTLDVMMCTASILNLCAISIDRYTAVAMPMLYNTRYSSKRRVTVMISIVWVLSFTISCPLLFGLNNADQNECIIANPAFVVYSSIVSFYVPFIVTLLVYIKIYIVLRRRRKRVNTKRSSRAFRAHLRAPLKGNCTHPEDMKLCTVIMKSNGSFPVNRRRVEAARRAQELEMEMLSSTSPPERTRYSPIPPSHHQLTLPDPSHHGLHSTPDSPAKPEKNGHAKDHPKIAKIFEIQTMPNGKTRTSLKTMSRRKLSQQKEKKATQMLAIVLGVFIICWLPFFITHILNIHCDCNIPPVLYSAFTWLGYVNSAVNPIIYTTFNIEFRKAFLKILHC
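Agonist mode: compounds alone added to overnight-plated D2 PathHunter cells for 90 min at 37 C, with 57 uM final dopamine (EC100) defining full response. Beta-arrestin recruitment detected by chemiluminescent reagent, read after 1 h at ambient temperature.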
Starred values were filed as active, the others as inactive; ? = inconclusive; . = no result given; & = joins results of further samples; [ ] = another dose, or the depositor's remark. Rows were taken by chance. Share with any hit: about 5.1%.

SMILES | ClpP mod | PINK1 modulator | Menin-MLL FL inh | gsp agonist | Sfp PPTase inh | gsp antag | D2 agonist
CCC(C)NS(=O)(=O)c1ccc(NC(=O)C2CCCO2)cc1 (centres undefined) | . | 0.4% | 0.2 | 25%[15.4 µM] | 12% | 11% | -1.0
CN(C)CCCNCCCNC(=O)/C=N/O | 0.4% | . | 2.5 | -2% | -7% | 3% | 1.9
Nc1ccc(N2CCOCC2)c2nonc12 | 1.2% | -1.5% | -2.0 | -15% | ? | -19% | -4.4
O=C(O)CC(Cc1ccccc1)(C(=O)O)c1ccccc1 (centres undefined) | -0.5% | 1.1% | -2.3 | 16% | 10% | 10% | -14
O=Cc1nccc2ccccc12 | -2.6% | 8.7% | . | -3% | . | 20% | -6.0
COc1ccc(-c2oc3ncnc(NCCCN4CCOCC4)c3c2-c2ccc(OC)cc2)cc1 | 17% | -6.9%[38.3 µM] | 0.8 | 20% | ? | -6% | -0.9
CCCn1c(=S)[nH]c2cc(C(=O)N3CCN(C)CC3)ccc2c1=O | 0.0% | 0.8% | . | -120%[inhibitor] | . | . | -3.6
COc1cccc(C(=O)O[C@H]2[C@H](Cc3ccccc3)NS(=O)(=O)[C@H]3C[C@@H]4C=C[C@]23O4)c1 | -12%&-1.3% | -0.2% | . | 9% | . | 7% | -2.6
CC(C)Cn1c(C23CC4CC(CC(C4)C2)C3)n[nH]c1=S | 0.5% | 2.9% | 64[activator] | ? | ? | -1% | -1.7
CCCC(O)(c1ccc(Cl)cc1)C(CN1CCOCC1)c1ccc(Cl)cc1 (centres undefined) | . | 11% | -0.6 | -2% | -15% | -11% | -4.5
CN(C)/C=C1\NC(=S)N(c2ccc(Cl)cc2)C1=O | . | 0.9% | 20 | 8%[15.4 µM] | 32µM* | -4% | -5.4
COC(=O)c1cc2c(cc1Cl)SC(=NCCCN1CCOCC1)NS2(=O)=O | 1.1% | -1.1% | 4.2 | -8% | ? | -5% | -6.1
Cc1cc(C(=O)Nc2ccccc2C(=O)N2CCCCC2)ccc1[N+](=O)[O-] | . | 4.3% | 3.2 | ? | 23% | -15% | 4.3
CCOC(=O)c1sc(NS(=O)(=O)c2ccc(NC(C)=O)cc2)nc1C | 0.0% | ? | 4.4 | 30% | 6% | 1% | 0.4
O=[N+]([O-])c1cccc(NC(=S)Nc2nc(-c3ccccc3Cl)cs2)c1 | 1.3% | ? | 2.8 | -43%[inhibitor] | ? | ? | -11
O=Cc1cn(CC(O)CN2CCCCC2)c2ccccc12 (centres undefined) | -0.6% | -0.5% | -0.3 | 6% | 11% | -2% | -4.2
O=C(CNC(=O)c1cccc(F)c1)N/N=C/c1cc(Br)ccc1OCc1ccccc1 | -9.2% | -2.1% | 3.8 | 18% | 17% | -8% | -1.3
O=C(c1ncc[nH]1)c1ccccc1C(=O)N1CCOCC1 | 0.9% | 8.8%[38.3 µM] | 0.1 | -5% | -11% | 8% | -0.6
Nc1ccc(S(=O)(=O)Nc2nccc(/C=C/c3ccccc3F)n2)cc1 | . | 3.1% | 1.6 | 2% | 10% | 1% | 5.9
COc1ccc(S(=O)(=O)NC2CC(=O)N(c3ccc4c(c3)OCCO4)C2)cc1 (centres undefined) | . | 0.2% | . | 12%[15.4 µM] | . | -14% | -2.5
CC1CCCCC12NC(=O)N(CC(=O)c1ccc3c(c1)OCO3)C2=O (centres undefined) | -3.8% | 3.5% | . | 19% | . | 2% | -2.3
COc1ccc(-c2csc(CCn3nc(C)cc3C)n2)cc1 | . | 1.4% | -1.7 | 16%[15.4 µM] | ? | -3% | 4.1
CN(C)c1ccc(CNS(=O)(=O)c2ccc3c(c2)NC(=O)CS3)cc1 | 0.8% | -0.4% | 3.4 | -23% | 6% | -12% | -2.1
CCCCCn1c(NC(=O)c2ccco2)c(S(=O)(=O)c2ccc(C)cc2)c2nc3ccccc3nc21 | ? | -1.0%[38.3 µM] | 14 | ? | -23% | -22% | -0.6
Cc1ccccc1S(=O)(=O)Cc1ccc(C(=O)N2CCN(c3ccc(F)cc3)CC2)o1 | -1.8% | 4.2% | 2.9 | -38%[inhibitor] | 2% | -31% | -0.4
O=C(CCNC(=O)c1ccco1)Nc1ccc(OC(F)F)cc1 | 1.8% | -0.6% | -0.4 | 10% | -2% | 15% | -0.1
C=C(C)c1ccc(C(C)(C)NC(=O)NCc2ccco2)cc1 | -3.7% | -1.2% | -1.8 | -3% | 5% | -5% | 1.6
CC(SCc1nc2sc3c(c2c(=O)[nH]1)CCCC3)C(=O)Nc1ccccn1 (centres undefined) | -2.3% | 0.0% | . | 0%[15.4 µM] | . | 1% | -4.8
CC(=O)c1sc(NC(=O)COc2ccc(Cl)cc2C)nc1C | . | 1.2% | -0.1 | -6% | 9% | 12% | -1.7
O=C(CSc1nnc2n1CCCN2)c1ccc(Cl)cc1 | 14µM* | 1.4% | 1.2 | -24% | 0% | 0% | -7.9
C=CCNC(NC(=O)c1ccccc1)(C(=O)OCC)C(F)(F)F (centres undefined) | -3.4% | -3.4% | -1.1 | -43%[inhibitor] | 11% | 8% | -0.8
CCN(C(=O)Cc1ccc(NC2=NC3CS(=O)(=O)CC3S2)cc1)c1ccccc1 (centres undefined) | 1.4% | 0.7% | 2.1 | 22% | 2% | 5% | -1.4
c1ccc(OCCOCCN2CCN(C(c3ccccc3)c3ccccc3)CC2)cc1 | -2.8% | ? | 4.2 | 14% | -34% | 2% | -5.8
Nc1nc(CSC(=S)N2CCCCC2)nc(Nc2ccccc2)n1 | . | 4.0% | 0.3 | 11%[15.4 µM] | -2% | 8% | -1.8
COc1ccc(OC)c(C(=O)NC(CC(N)=O)c2ccc(NCc3ccccn3)c([N+](=O)[O-])c2)c1 (centres undefined) | -12% | -0.6% | 4.7 | 8% | 11% | -5% | -2.3
O=C(c1cc2ccccc2o1)N1CCN(S(=O)(=O)c2ccc(F)c(F)c2F)CC1 | -0.9% | 6.3% | . | 2% | . | -3% | -2.4
c1ccc(-c2csc(-c3ccncc3)n2)cc1 | . | -0.3% | 0.2 | 8%[15.4 µM] | 19% | -1% | -3.0
CC(C)(C)NC(=O)CN(C(=O)Cn1nnc(-c2ccc(Cl)cc2)n1)C1CCN(Cc2ccccc2)CC1 | -0.8% | -0.2% | 2.9 | 22% | -6% | 2% | -1.9
OCC(CO)(CO)NC(=S)Nc1cc(Cl)cc(Cl)c1 | 0.3% | -0.8% | 1.7 | -16% | 7% | 10% | -3.6
COc1cccc(C(=O)NNC(=O)C(=O)Nc2ccc(C)c(Cl)c2)c1 | . | -1.0% | -1.9 | 9% | 16% | 6% | 3.3
CCCCNC(=O)CNC(=S)N(Cc1cc(OC)c(OC)c(OC)c1)C1CCCC1 | -0.6% | 3.3% | -3.9 | -3%[15.4 µM] | 6% | -1% | -3.7
O=C(Nc1ccc(F)cc1)Nc1nnc(COc2ccccc2F)s1 | . | ? | 1.7 | -6%[15.4 µM] | 5% | -28% | -3.4
C/C(=N\Nc1ccc([N+](=O)[O-])cc1)c1ccc2c(c1)OCO2 | . | 3.4% | ? | -24% | 20% | -2% | -7.1
O=c1cc(C(Cl)(Cl)Cl)oc2c1ccc1ccccc12 | -3.3% | -3.9% | -7.8 | 14% | 11% | 1% | 9.8
CC(=O)Nc1ccc(NC(=O)COc2ccc3c(c2)CCC3)cc1 | -1.6% | 0.1% | 1.6 | 11% | 10% | 4% | 9.6
COc1ccc(CCNC(=O)C(C)c2ccc([N+](=O)[O-])cc2)cc1 (centres undefined) | . | 0.1% | -0.5 | 0% | 25% | 3% | 3.0
COc1cccc(C2=NOC(C(=O)Nc3cccc(C(C)=O)c3)C2)c1OC (centres undefined) | -1.9% | 1.2%[38.3 µM] | 2.4 | 8% | 8% | -6% | -0.4
COc1ccc(C(=O)N(C)C2CCCCC2)cc1S(=O)(=O)N1CCOCC1 | 0.5% | 1.4% | . | -33%[inhibitor] | . | 6% | -0.8
O=C(NCCCN1CCCCCC1)C1CC(=O)N(CCc2ccccc2)C1 (centres undefined) | -0.8% | -0.4% | -0.7 | 0% | -15% | 14% | -4.4
CC1(C(=O)N2Cc3ccccc3C2)CCN1C(=O)C1(c2ccc(Cl)cc2)CC1 (centres undefined) | -2.5% | 0.3% | . | . | . | . | -6.0
COc1ccc(C(=O)Nc2ccc(S(=O)(=O)Nc3onc(C)c3C)cc2)cc1OC | -0.6% | 5.8% | 1.4 | ? | 27% | -9% | -4.6
Cc1ccccc1S(=O)Cc1ccc(C(=O)N2CCN(C(=O)c3ccco3)CC2)o1 (centres undefined) | 1.1% | -1.1% | . | -1% | 16% | 4% | 0.0
CCn1c(CNC(=O)c2ccco2)nnc1SCC(=O)c1ccccc1 | 0.5% | -0.7% | -1.5 | -28% | 3% | 12% | -0.1
O=C(Nc1cccc2ccccc12)N1CCN(c2ncccn2)CC1 | ? | -0.6% | 4.7 | -1% | -13% | 8% | -1.0
Cc1cc(OCC(=O)Nc2nccs2)c2c(C)c(C)c(=O)oc2c1 | 32µM* | 11% | . | -7% | . | . | -0.8
